Compound activity as filed in PubChem BioAssay.
VACV mCherry inh = inhibitors of vaccinia virus infection (mCherry reporter signal); Vaccinia virus mCherry reporter infection, fluorescence; about a quarter of the inactives have no number; Potency, µM (highest dose often 36.5 µM), for the others: at the top dose activity change, negative = inhibition, most hits filed as inhibitors; 310,000 compounds, 0.63% hits; active = well fitted inhibition curve with a large enough effect; inconclusive = small, poorly fitted or top-dose-only effect; inactive = no such curve, though single readings can be large or run the other way; tested in A549 cells; further: nearly all actives have a fitted effect of over 35% in size; inactives centre near -10
VACV Venus inh = inhibitors of vaccinia virus (Venus reporter) | Vaccinia virus Venus reporter expression, fluorescence | Potency, µM (titrated, usually from 36.5 µM), without a hit: at the highest dose activity change, negative = inhibition, usual class: inhibitors | 330,000 compounds, 0.46% hits; active means well fitted inhibition curve with a large enough effect; inconclusive means small, poorly fitted or top-dose-only effect; inactive means no such curve, though single readings can be large or run the other way; tested in A549 cells; further: nearly all actives have a fitted effect of over 30% in size; inactives centre near -10
Active calls of the source: *; i = inactive; ? = inconclusive; / = no result given; & = joins results of further samples; [ ] = dose if it differs, or a comment. On the % scale 0 is the no-effect control and ±100 the full control effect; potency means the concentration at half of the fitted maximal effect.

SMILES	VACV mCherry inh	VACV Venus inh
CCOCCCNC(=O)/C(C#N)=C/c1ccc(C(=O)OC)cc1	-2%	-5%
Cc1ccc2c(c1)c(=O)c(S(=O)(=O)c1ccc(F)cc1)cn2CC(=O)Nc1ccc2c(c1)OCO2	-3%	-7%
CC(/C=C1\SC(=O)N(CC(=O)Nc2ccc(O)cc2)C1=O)=C\c1ccccc1	-23%	12%
Nn1c(SCC(=O)Nc2ccc(OC(F)F)cc2)nnc(Cc2ccccc2)c1=O	?	-8%
O=C(OC1CCOC1=O)c1cccc(S(=O)(=O)Nc2ccc(F)cc2)c1 (configuration not stated)	-16%	-21%
COc1ccc(NC(=O)c2ccc(NCC3CCCO3)c([N+](=O)[O-])c2)cc1 (configuration not stated)	i	-27%
O=C(Cc1cn2ccsc2n1)Nc1ccccc1Oc1ccccc1	i	-9%
Oc1ccccc1CNc1ccc(Br)cn1	/	14µM*
O=S(=O)(c1cccc2nsnc12)N1CCN(c2ncccn2)CC1	-4%	-27%
CC(C)(C)NC(=O)c1ccc(COc2ccccc2Br)o1	-4%	-21%

Sorted by molar mass (low to high): some entries from above.
SMILES	VACV mCherry inh	VACV Venus inh
O=C(Cc1cn2ccsc2n1)Nc1ccccc1Oc1ccccc1	i	-9%
CC(C)(C)NC(=O)c1ccc(COc2ccccc2Br)o1	-4%	-21%
O=C(OC1CCOC1=O)c1cccc(S(=O)(=O)Nc2ccc(F)cc2)c1 (configuration not stated)	-16%	-21%

Additional records
SMILES	VACV mCherry inh	VACV Venus inh
CC1CCN(C(=O)c2ccc3c(c2)C(=O)c2ccccc2-3)CC1	-2%	-8%
CC1=C(C/C=C(\C)CCC[C@H](C)CCC[C@H](C)CCCC(C)C)C(=O)c2ccccc2C1=O	2%	-8%
CSc1ccc(-c2nc(O)c3cnccn23)cc1	-28%	-21%
CCCCNc1c(-c2ccc(SC3CCCCC3)cc2)nc2ccccn12	-4%&-27%	?
O=C(CNC(=O)COc1ccccc1)NCc1cccnc1	i	3%
O=C1NCC(c2ccccc2)C1C(=O)N/N=C\c1ccc(-c2cccc(Cl)c2Cl)o1 (configuration not stated)	/	-23%
O=C(Cn1cc(C(=O)C2CC2)c2ccccc21)Nc1ccccc1Cl	27%	-11%
COc1cccc2cc(-c3nnc(Nc4c(F)cccc4F)s3)c(=O)oc12	-4%	-15%
COc1cc(-c2noc(C)c2C(=O)NCc2ccc(C)o2)cc(OC)c1OC	i	-9%
COc1cc(NS(=O)(=O)c2ccc3[nH]c4c(c3c2)CCCC4)cc(OC)c1OC	?	?
Cn1ccc(NC(=O)CCl)n1	?	?
Cc1cn(CC(=O)N[C@H](C)c2cccc3ccccc23)c(=O)[nH]c1=O	i	-11%
O=C(c1ccc([N+](=O)[O-])o1)N1CCc2ccccc21	?	?
Cc1ccc(C)n1-c1nc(=S)[nH][nH]1	-10%	-1%
Cc1ccc(CNC(=O)C2(S(=O)(=O)c3ccc(C)cc3)CC2)cc1	-21%	6%
O=C(CCS(=O)(=O)c1nc(-c2ccc3c(c2)OCO3)cc(C(F)(F)F)n1)Nc1ccccc1F	-4%	-20%
COc1ccc(N2CCN(C(=O)CNC(=O)c3ccccc3Cl)CC2)cc1	-5%	-7%
C1CCc2c(c(N3CCOCC3)nc3sc4c(N5CCOCC5)nnnc4c23)C1	-7%	-2%
CNC(=O)CSc1nc2cccnc2n1-c1ccc(F)cc1	-1%	-3%
COc1cc(NC(=O)NCCN2CCN(c3ccccc3)CC2)cc(OC)c1OC	-5%&-10%	-6%&-4%
O=Cc1cc(N=Nc2cccc(C(=O)O)c2)ccc1O	-13%	6%
O=C(c1sc2cccc(F)c2c1Cl)N1CCN(c2ncccn2)CC1	-3%	5%
COC(=O)Cn1cnc(C(=O)Nc2ccc(C)c(C)c2)n1	i	-4%
CC(N=Cc1c(O)c2ccccc2oc1=O)C(=O)O (configuration not stated)	?	-13%
O=C1OCCN1C(=O)[C@H]1[C@H](c2ccc(F)cc2)C(c2ccccc2)=NN1c1ccccc1	-18%	-14%
CSc1ncccc1C(=O)NCc1nnc2ccccn12	i	-8%
Cc1cc(C)c(C)c(S(=O)(=O)ON2C(=O)c3ccccc3C2=O)c1C	-14%	-19%
O=C(O)/C(=C\c1ccco1)NC(=O)c1ccccc1	i	-4%
CCOCCCN(C(=O)c1snc(C(N)=O)c1N)C(C(=O)NCCC(C)C)c1ccc(Cl)cc1 (configuration not stated)	-14%	-7%
CC(C)C1Oc2cc3oc(=O)ccc3cc2C1=O (configuration not stated)	i	-21%
COc1ccc(N(CC(=O)Nc2cc(OC)cc(OC)c2)S(=O)(=O)c2c(C)n[nH]c2C)cc1	-9%	-19%
CC(/C=C1\SC(=S)N(CCCC(=O)Nc2ccc(C(=O)O)c(O)c2)C1=O)=C\c1ccccc1	-2%	-3%
O=C(NC1CC1)C1CCCN(C(=O)Nc2ccc(F)cc2)C1 (configuration not stated)	-14%	0%
Cc1ccc(CSc2nnc(-c3cccnc3)o2)cc1	-11%	-21%
O=C(NCCc1ccc(Cl)cc1)C1CCC(=O)N1C1CCCC1 (configuration not stated)	i	-23%
CCN(CC)CCOc1ccccc1OC	i	2%
CC(C)Cn1c(N)c(C(=O)CSc2nccn2C)c(=O)n(C)c1=O	-12%	-7%
Cc1cc(NC(=O)c2cccs2)ccc1NC(=O)Cc1ccccc1	-2%	-22%
CCCSc1ccc([C@H]2N[C@@](C)(C(=O)OC)[C@H]3C(=O)N(CC)C(=O)[C@@H]23)cc1	i	?
CC(C)n1c(C(F)(F)F)nc2cc(C(=O)N3CCCCC3)ccc21	-7%	-9%
Cc1ccnc(NS(=O)(=O)c2ccc(CC(C)C)cc2)c1	-8%	-3%
Cn1c(=O)oc2cc(S(=O)(=O)N3CCN(c4ccccc4F)CC3)ccc21	-2%	-14%
COc1cccc(C2=CC(=O)CC(C)(C)C2)c1OC	i	-22%
CCCOc1cccc(C(=O)NCCNC(=O)c2ccccn2)c1	-7%	7%
NCC[C@H](O)C(=O)N[C@@H]1C[C@H](N)[C@@H](O[C@H]2O[C@H](CN)[C@@H](O)[C@H](O)[C@H]2O)[C@H](O)[C@H]1O[C@H]1O[C@H](CO)[C@@H](O)[C@H](N)[C@H]1O	-17%	-20%
NS(=O)(=O)c1ccc(CCNC(=O)C2CCCN(S(=O)(=O)c3cccnc3)C2)cc1 (configuration not stated)	4%	9%
C=CCNC(=O)C(=O)NCC(c1ccc2c(c1)OCO2)N1CCOCC1 (configuration not stated)	-25%	-8%
NC(=O)c1cccc(-c2cccc3nccn23)c1	2%	-14%
O=C1CC(N2CCN(c3ccccn3)CC2)C(=O)N1c1ccc(F)cc1 (configuration not stated)	i	-1%
COc1cc(/C=C2\C(=O)ON=C2c2ccccc2)cc(Cl)c1O	14%	40%[activator]

Grouped by structure: the entries above with a nitro group on carbon.
SMILES	VACV mCherry inh	VACV Venus inh
COc1ccc(NC(=O)c2ccc(NCC3CCCO3)c([N+](=O)[O-])c2)cc1 (configuration not stated)	i	-27%
O=C(c1ccc([N+](=O)[O-])o1)N1CCc2ccccc21	?	?

Structures above that contain a furan ring, fused or not, in the order listed:
SMILES	VACV mCherry inh	VACV Venus inh
CC(C)(C)NC(=O)c1ccc(COc2ccccc2Br)o1	-4%	-21%
O=C1NCC(c2ccccc2)C1C(=O)N/N=C\c1ccc(-c2cccc(Cl)c2Cl)o1 (configuration not stated)	/	-23%
COc1cc(-c2noc(C)c2C(=O)NCc2ccc(C)o2)cc(OC)c1OC	i	-9%
O=C(c1ccc([N+](=O)[O-])o1)N1CCc2ccccc21	?	?
O=C(O)/C(=C\c1ccco1)NC(=O)c1ccccc1	i	-4%

(continued)
SMILES	VACV mCherry inh	VACV Venus inh
Cc1ccccc1NC(=O)CNC(=O)N1CC(=O)Nc2ccccc21	-13%	-6%
Cc1ccc(OC(=O)N(C)C[C@@H]2OCc3cn(nn3)CCCC(=O)N([C@@H](C)CO)C[C@H]2C)cc1	-16%	-7%
COc1ccc(-c2cc(C(F)(F)F)nc(SCC(=O)NCCc3ccc(OC)c(OC)c3)n2)cc1	-7%	-8%
Cc1ccc(-c2nnc(SCc3ccc(C#N)cc3)n2Cc2ccco2)cc1	-4%	-11%
Cc1cccc(N(C)C(=O)CSc2nc3ncccc3o2)c1	-14%	-4%
COc1c(/C=N/NC(=O)c2ccccc2O)c(CCN(C)C(C)=O)cc2c1OCO2	-16%	-10%
CN(C)CCNC(=O)c1c(CSc2ccccc2)noc1C(=O)NCc1ccccc1	i	-5%
O=C(NC1CCN(C(=O)c2cccc([N+](=O)[O-])c2)CC1)c1ccccc1	19%	-1%
COc1ccc(OCc2cc(=O)c3ccc4c(c3o2)C=CC(C)(C)O4)cc1OC	i	-20%
O=C(CN(C(=O)CCC(=O)Nc1ccccn1)c1ccccc1F)NCc1ccc2c(c1)OCO2	-7%	-8%
COC(=O)c1sccc1NS(=O)(=O)c1ccc(OC)cc1	-20%	-22%
Cc1ccc(C)c(N2CCN(c3nc4ccccc4n4c(C)nnc34)CC2)c1	-11%	-10%
O=C(C1=COCCO1)N1CCN(c2nc3ccc([N+](=O)[O-])cc3s2)CC1	-10%	-14%
CCC(=O)N1c2ccccc2CC1C(=O)N1CCN(c2cccc(OC)c2)CC1 (configuration not stated)	-5%	5%
CC1CCCCC1NC(=O)c1ccc(S(=O)(=O)NCC2CCCO2)cc1 (configuration not stated)	8%	-9%
O=C(c1ccccc1)N1CCC(c2nc3c(nnn3Cc3ccco3)c(=O)[nH]2)CC1	i	-14%
O=C(Nc1ccc2c(c1)OCO2)c1cc(C2CCCCN2C(=O)c2ccc3ccccc3c2)on1 (configuration not stated)	-19%	-16%
COc1ccc(S(=O)(=O)N(C)C[C@H]2Oc3ccc(NS(=O)(=O)c4ccccc4)cc3CC(=O)N([C@H](C)CO)C[C@@H]2C)cc1	?	-13%
CC(=O)Nc1ccc(S(=O)(=O)Nc2nccc(/C=C/c3ccc(Cl)cc3)n2)cc1	-17%	-12%
Cc1ccccc1C(=O)N1Cc2ccccc2-n2nncc2C1	-9%	-8%
CC(C(=O)NCCS(=O)(=O)c1ccc(Br)cc1)S(=O)(=O)c1ccc(Cl)cc1 (configuration not stated)	i	-11%
CC(C)(C)c1ccc(C(=O)OCc2c(-c3ccccc3)ncc3ccccc23)cc1	i	0%
CN(C)c1ccc(C(=O)/C=C/c2ccco2)cc1	-4%	-13%
O=C(N1CCCCC1)N1CCCN(C(=O)N2CCCCC2)CC1	/	-15%
COc1ccc(-c2cnc3c(NC(C)=O)cc(-c4cccc(C(=O)NCCN(C)C)c4)cn23)cc1OC	i	-14%
Cc1ccc(S(=O)(=O)NC(=O)C2(C)CCN2C(=O)Cc2cccs2)nc1 (configuration not stated)	48%[activator]	2%
Cc1cnn(C(=S)NCC2CCCO2)c1 (configuration not stated)	3%	5%
O=C(N1CCCC1)C12CCC3CC(CC(C3)C1)C2	-22%	-22%
CC1CCCN(CC(O)COc2ccc(-c3ccccc3)cc2)C1 (configuration not stated)	-28%	-26%
Cc1ccccc1OCC(=O)NCC(=O)OCc1ccc(Br)cc1	i	-5%
CCOc1ccc2nc(NC(=O)c3cccc(-c4cc5ccccc5oc4=O)c3)sc2c1	?	?
Cc1cc(C)n(C(=O)c2cc3c(s2)CCCC3)n1	i	-13%

For reference, 7 of the compounds above:
SMILES	VACV mCherry inh	VACV Venus inh
Cc1ccc(S(=O)(=O)NC(=O)C2(C)CCN2C(=O)Cc2cccs2)nc1 (configuration not stated)	48%[activator]	2%
Cc1cnn(C(=S)NCC2CCCO2)c1 (configuration not stated)	3%	5%
O=C(N1CCCC1)C12CCC3CC(CC(C3)C1)C2	-22%	-22%
CC1CCCN(CC(O)COc2ccc(-c3ccccc3)cc2)C1 (configuration not stated)	-28%	-26%
Cc1ccccc1OCC(=O)NCC(=O)OCc1ccc(Br)cc1	i	-5%
CCOc1ccc2nc(NC(=O)c3cccc(-c4cc5ccccc5oc4=O)c3)sc2c1	?	?
Cc1cc(C)n(C(=O)c2cc3c(s2)CCCC3)n1	i	-13%

Rows are unselected, and some 0.87% of all compounds hit somewhere here.
